TRPML1 ag: qHTS for Agonists of the Human Mucolipin Transient Receptor Potential 1 (TRPML1) | Mucolipin-1 (Homo sapiens), Q9GZU1 | TRPML1-expressing cells, Ca2+ dye fluorescence, FDSS; host cell line not named in the record; reference of the full effect not given here | activation, % (no concentration beside the values) | hit rate 0.12% among 410,000 | AID 624414, 2012; in the data active = activation above about 50%; inconclusive = about 30% to 50%; inactive = below about 30%; note: 0% is about no effect; the text of the record puts the active cut at 80%
Target sequence (Q9GZU1 whole entry, looked up): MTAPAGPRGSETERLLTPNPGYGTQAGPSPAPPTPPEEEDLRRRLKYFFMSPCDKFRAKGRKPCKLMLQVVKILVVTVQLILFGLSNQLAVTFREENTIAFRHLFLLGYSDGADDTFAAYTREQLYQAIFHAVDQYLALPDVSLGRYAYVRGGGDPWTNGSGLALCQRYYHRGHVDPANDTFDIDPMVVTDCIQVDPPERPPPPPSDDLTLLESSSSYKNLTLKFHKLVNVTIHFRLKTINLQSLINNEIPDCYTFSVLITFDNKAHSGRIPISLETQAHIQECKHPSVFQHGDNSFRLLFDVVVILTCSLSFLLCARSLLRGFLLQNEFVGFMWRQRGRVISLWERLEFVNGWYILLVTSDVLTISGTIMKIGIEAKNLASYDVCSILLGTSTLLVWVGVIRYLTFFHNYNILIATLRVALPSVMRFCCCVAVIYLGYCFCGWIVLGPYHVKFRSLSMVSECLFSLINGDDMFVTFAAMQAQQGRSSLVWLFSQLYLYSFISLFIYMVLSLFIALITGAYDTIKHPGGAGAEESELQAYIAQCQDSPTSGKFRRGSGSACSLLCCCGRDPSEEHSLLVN
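TRPML1-DL cells, Tet-induced overnight (~16 h, 37 degrees C), loaded 45-90 min at room temperature with Ca8 no-wash calcium dye plus quencher. FDSS fluorescence: 10 s baseline, compound pin-transfer, 110 s agonist read, then EC80 54-4 (4uM final) and 110 s antagonist read.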
CtBP-E1A inh: qHTS Assay for Inhibitors of the CtBP/E1A Interaction | CtBP / adenovirus E1A interaction (AlphaScreen) | hit rate 0.49% among 340,000 | AlphaScreen GST-E1A/His-CtBP binding, 1536-well; active compounds read low; control for the full effect not named in the record | activity change, % (concentration not given with the values); in the data active means activity change below about -65%; inconclusive means about -30% to -65%; inactive means above about -30%; note: % is set by controls: 0 for no effect and ±100 for the full control effect
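Steps: dispense buffer (Tris pH 8.0, NaCl 300 mM, TCEP 1 mM, BSA, Tween 20); add 5X protein mix (GST-E1A, His-CtBP, 125 nM each); pin 23 nL compound; 2 h at 37 °C, dark; add 5X beads (50 ug/mL); 1 h; read.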
TRPML1 blocker: qHTS for Inhibitors of the Human Mucolipin Transient Receptor Potential 1 (TRPML1). Mucolipin-1 (Homo sapiens), Q9GZU1. TRPML1-inducible cells, Ca2+ dye fluorescence, FDSS; active compounds read low; inhibition of EC80 agonist-evoked calcium signal. activity change, negative = inhibition, % (test concentration not listed). hit rate 0.02% among 390,000; in the data active means activity change below about -50%; inconclusive means about -30% to -50%; inactive means above about -30%;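 note: stimulus is agonist 54-4 at its EC80 concentration; % is set by controls: 0 for no effect and ±100 for the full control effect; compound concentration not given in the record; the text of the record puts the active cut at -80%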
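Tet-induced TRPML1-DL cells loaded with Ca8 no-wash calcium dye were read kinetically on FDSS. Compound addition was followed by EC80 agonist 54-4 (4 uM final); inhibition was read over 110 s.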
Six1-Eya2 blk: qHTS Assay for Inhibitors of the Six1/Eya2 Interaction; Homeobox protein SIX1 (Homo sapiens) + Protein phosphatase EYA2 (Homo sapiens), …; hit rate 0.56% among 360,000; AlphaScreen GST-Six1/His-Eya2 binding, biochemical; active compounds read low; control for the full effect not named in the record; activity change, % (test concentration not listed); in the data active = activity change below about -65%; inconclusive = about -30% to -65%; inactive = above about -30%; note: % is set by controls: 0 for no effect and ±100 for the full control effect
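GST-Six1 + His-Eya2 (5X stock: 250/500 nM); Tris pH 8.0, 300 mM NaCl, 0.05% BSA, 0.02% Tween 20; GSH donor/Ni acceptor beads; 1 h 37 °C dark; AlphaScreen readout.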
D2 ag: Beta-Arrestin HTS for Positive Allosteric Modulators of the Human D2 Dopamine Receptor: Agonists; D(2) dopamine receptor (Homo sapiens), P14416; DiscoveRx PathHunter D2 beta-arrestin, luminescence, 90 min; 100% = 57 uM dopamine signal; activation, % (concentration not given with the values); hit rate 0.084% among 360,000; in the data active = activation above about 40%; inconclusive = about 15% to 40%; inactive = below about 15%; note: compound concentration not given in the record; the text of the record calls up to 30% inactive
Target sequence (P14416 whole entry, looked up): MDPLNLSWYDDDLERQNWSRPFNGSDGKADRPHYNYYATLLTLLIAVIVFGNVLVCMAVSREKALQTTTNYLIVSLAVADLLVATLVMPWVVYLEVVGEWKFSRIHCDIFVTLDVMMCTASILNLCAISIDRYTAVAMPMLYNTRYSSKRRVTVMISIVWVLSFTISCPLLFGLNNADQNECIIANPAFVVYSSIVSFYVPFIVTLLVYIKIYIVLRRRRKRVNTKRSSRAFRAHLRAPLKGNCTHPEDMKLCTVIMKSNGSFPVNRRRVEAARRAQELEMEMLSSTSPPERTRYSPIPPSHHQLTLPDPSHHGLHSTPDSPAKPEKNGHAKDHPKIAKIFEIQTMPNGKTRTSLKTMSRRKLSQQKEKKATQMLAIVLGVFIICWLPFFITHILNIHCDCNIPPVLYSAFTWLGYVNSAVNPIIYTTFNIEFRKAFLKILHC
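Agonist mode: compounds alone added to overnight-plated D2 PathHunter cells for 90 min at 37 C, with 57 uM final dopamine (EC100) defining full response. Beta-arrestin recruitment detected by chemiluminescent reagent, read after 1 h at ambient temperature.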
PINK1 modulator: A Quantitative High throughput Screen to Identify Chemical Modulators of PINK1 Expression | PINK1 immunofluorescence, high-content cytometry, 24 h | Potency, µM (titrated, usually from 76.6 µM), for inactives: top-dose activation (PINK1 increase), hits mostly activators | hit rate 0.2% among 410,000 | AID 624263, 2012; active = well fitted activation curve with a large enough effect; inconclusive = small, poorly fitted or top-dose-only effect; inactive = flat fitted curve, though single readings scatter; cell line not stated here;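 note: potency is the fitted concentration of half-maximal effect; % of control where 0% means no effect; nearly all actives have a fitted effect of over 65% in size; a mitochondrial uncoupler was the plate control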
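PINK1 protein level read as immunofluorescence by microplate cytometer in a fixed, stained stable cell line after 24 h exposure to five compound concentrations, with CCCP as control.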
Starred values were filed as active, the others as inactive; & = joins results of further samples; [ ] = dose if it differs, or a comment.

COc1ccc(C(C)=O)cc1CS(=O)(=O)CC(=O)NCCc1c[nH]c2ccccc12 was read as TRPML1 ag 3.1, CtBP-E1A inh 4, TRPML1 blocker -20, Six1-Eya2 blk -7, D2 ag -1.5 and PINK1 modulator 1.1%.
Screening CCCCCc1cc(=O)oc2c(C(CCN3CCN(c4ccccc4)CC3)c3ccc4c(c3)OCO4)c(OC)cc(OC)c12 (configuration not stated) returned TRPML1 ag -0.6, CtBP-E1A inh -18, TRPML1 blocker 1, Six1-Eya2 blk inconclusive, D2 ag 14 and PINK1 modulator 2.6%.
Cc1cc(/C=C(/C#N)c2nc3ccccc3[nH]2)c(C)n1-c1ccccc1C(=O)O was read as TRPML1 ag -0.3, CtBP-E1A inh 0, TRPML1 blocker -5, Six1-Eya2 blk inconclusive, D2 ag -0.4 and PINK1 modulator 1.6%.
c1ccc(-n2cnnc2SCc2cn3ccsc3n2)cc1 was read as TRPML1 ag -0.3, CtBP-E1A inh -1, TRPML1 blocker -24, Six1-Eya2 blk 3, D2 ag -1.9 and PINK1 modulator 2.8%.
COC(=O)c1ccc(CNC(=O)COC(=O)/C=C/c2ccc(OC)c(OC)c2)cc1 was read as TRPML1 ag -1.6, TRPML1 blocker 18, Six1-Eya2 blk -4, D2 ag -1.9 and PINK1 modulator 4.0%.
For COCCCn1cc(C(=O)c2cc(OC)ccc2OCC(=O)Nc2cc(C)on2)cc(C#N)c1=O the results were TRPML1 ag -0.8, CtBP-E1A inh 2, TRPML1 blocker -9, Six1-Eya2 blk -1, D2 ag -1.0 and PINK1 modulator 0.0%.
For CCc1ccc(CNC(=O)C2CCCN(S(=O)(=O)c3ccc4c(ccn4C)c3)C2)cc1 (configuration not stated) the results were TRPML1 ag 2.2, TRPML1 blocker 42 and PINK1 modulator 3.5%.
For N#C/C(=N\Nc1cccc(C(F)(F)F)c1)C(=O)c1csc(-c2cccnc2)n1 the results were TRPML1 ag 2.6, CtBP-E1A inh -7, TRPML1 blocker inconclusive, Six1-Eya2 blk -20, D2 ag -2.6 and PINK1 modulator inconclusive.
`Cc1nn(Cc2ccccc2)c(C)c1C(=O)OCC(=O)c1cc(C)n(CC(F)(F)F)c1C` gave TRPML1 ag 1.0, CtBP-E1A inh -10, TRPML1 blocker -10, Six1-Eya2 blk -17, D2 ag -1.9 and PINK1 modulator -1.4%.
For CCOc1ccc(OCc2ccc(C(=O)N(C)c3ccccc3)o2)cc1 the results were TRPML1 ag 0.2, CtBP-E1A inh -1, TRPML1 blocker 2, Six1-Eya2 blk -5, D2 ag 2.6 and PINK1 modulator 3.2%.
For COC(=O)CSc1nc2cc3c(cc2cc1C)OCCO3 the results were TRPML1 ag 4.1, CtBP-E1A inh 9, TRPML1 blocker 17, Six1-Eya2 blk 6, D2 ag -2.4 and PINK1 modulator -2.1%[38.3 µM].
`O/N=C/c1ccccc1Oc1ccc(Cl)cc1` gave TRPML1 ag 1.1, TRPML1 blocker 0, Six1-Eya2 blk -1, D2 ag 2.6 and PINK1 modulator 5.3%.
For COc1ccc(Nc2nc(-c3cccc([N+](=O)[O-])c3)nc3ccccc23)cc1 the results were TRPML1 ag 1.8, CtBP-E1A inh -25, TRPML1 blocker 14, Six1-Eya2 blk inconclusive, D2 ag 2.6 and PINK1 modulator 0.5%.
`COCCNC(=O)Cn1c(=O)n(Cc2ccco2)c(=O)c2ccccc21` gave TRPML1 ag 0.2, CtBP-E1A inh 3, TRPML1 blocker 27, Six1-Eya2 blk 2, D2 ag -1.2 and PINK1 modulator -2.5%.
CC1(C)CC(=O)C(C2=NC3(CCCCCC3)Cc3ccccc32)=C(O)C1 was read as TRPML1 ag -0.6, TRPML1 blocker -9, Six1-Eya2 blk -2, D2 ag -4.1 and PINK1 modulator 0.5%.
For CCN1CCCC1CNC(=O)c1ccc2c(c1)NC(=O)/C(=C\c1ccc(OC)c(OC)c1)S2 (configuration not stated) the results were TRPML1 ag -0.2, TRPML1 blocker 12, Six1-Eya2 blk -16, D2 ag 0.8 and PINK1 modulator -0.8%.
For O=C(Nc1cccc(-c2cn3c(n2)SCC3)c1)c1ccc(Br)o1 the results were TRPML1 ag 0.2, CtBP-E1A inh -5, TRPML1 blocker 21, Six1-Eya2 blk -11, D2 ag -1.4 and PINK1 modulator -0.4%.
FC(F)(F)c1cccc(N2CCCCC2)c1 was read as TRPML1 ag -0.5, CtBP-E1A inh 4, Six1-Eya2 blk 1, D2 ag -11 and PINK1 modulator -0.2%.
O=C(NCc1nc2ccccc2[nH]1)c1ccc(S(=O)(=O)N2CCOCC2)cc1 was read as TRPML1 ag -0.4, CtBP-E1A inh -3, TRPML1 blocker 14, Six1-Eya2 blk 3, D2 ag -3.7 and PINK1 modulator 1.1%.
For COc1ccc(C)cc1NC(=O)CNC(=O)c1sc2ccccc2c1Cl the results were TRPML1 ag 0.6, CtBP-E1A inh -8, TRPML1 blocker 6, Six1-Eya2 blk 1, D2 ag 9.8 and PINK1 modulator 1.1%.
CC1=C(C(=O)OC2CCCCC2)C(c2ccc(N(C)C)cc2)NC(=O)N1 (configuration not stated) was read as TRPML1 ag 1.7, CtBP-E1A inh 4, TRPML1 blocker -7, Six1-Eya2 blk -7, D2 ag -1.5 and PINK1 modulator 4.4%.
Screening O=C(ONC1=NCCCCC1)c1c(F)cccc1F returned TRPML1 ag 1.4, CtBP-E1A inh 1, TRPML1 blocker -9, Six1-Eya2 blk 2, D2 ag inconclusive and PINK1 modulator -0.3%.
Screening Cc1cccc([C@@H]2[C@@H]3C(=O)N(Cc4ccccc4)C(=O)[C@@H]3[C@]3(Cc4ccc(Cl)cc4)C(=O)N(c4ccccc4)C(=O)N23)c1 returned TRPML1 ag -0.5, CtBP-E1A inh 0, TRPML1 blocker -6, Six1-Eya2 blk -3, D2 ag -2.2 and PINK1 modulator 0.5%.
For c1ccc(-n2nnnc2NC2CCCCC2)cc1 the results were TRPML1 ag -0.2, CtBP-E1A inh 0, TRPML1 blocker 5, Six1-Eya2 blk -5, D2 ag -1.4 and PINK1 modulator 2.8µM*.

For convenience, part of the list above:
For COc1ccc(Nc2nc(-c3cccc([N+](=O)[O-])c3)nc3ccccc23)cc1 the results were TRPML1 ag 1.8, CtBP-E1A inh -25, TRPML1 blocker 14, Six1-Eya2 blk inconclusive, D2 ag 2.6 and PINK1 modulator 0.5%.
`COCCNC(=O)Cn1c(=O)n(Cc2ccco2)c(=O)c2ccccc21` gave TRPML1 ag 0.2, CtBP-E1A inh 3, TRPML1 blocker 27, Six1-Eya2 blk 2, D2 ag -1.2 and PINK1 modulator -2.5%.
CC1(C)CC(=O)C(C2=NC3(CCCCCC3)Cc3ccccc32)=C(O)C1 was read as TRPML1 ag -0.6, TRPML1 blocker -9, Six1-Eya2 blk -2, D2 ag -4.1 and PINK1 modulator 0.5%.

(more compounds)
For CC(C)(CSc1ccccn1)NS(=O)(=O)c1ccc(Cl)cc1 the results were TRPML1 ag 3.6, CtBP-E1A inh 7, TRPML1 blocker -7, Six1-Eya2 blk 4, D2 ag -3.9 and PINK1 modulator 2.5%.
For COc1ccc(CN(CC(=O)NCc2ccc3c(c2)OCO3)C(=O)c2csnn2)cc1 the results were TRPML1 ag -1.2, CtBP-E1A inh 20, TRPML1 blocker 4, Six1-Eya2 blk 2, D2 ag -1.7 and PINK1 modulator 2.2%.
For CCc1cc2c(=O)[nH]cnc2s1 the results were TRPML1 ag -0.4, CtBP-E1A inh -1, TRPML1 blocker -4, Six1-Eya2 blk 8, D2 ag -0.6 and PINK1 modulator -0.4%.
`Cc1ccc(CNC(=O)C2CC=CCC2C(=O)O)cc1` (configuration not stated) gave TRPML1 ag 1.6, TRPML1 blocker -7, Six1-Eya2 blk 8, D2 ag -1.1 and PINK1 modulator -0.1%.
Screening Cc1nc(N)c(Br)c(C)c1Br returned TRPML1 ag -0.3, CtBP-E1A inh -12, TRPML1 blocker -8, Six1-Eya2 blk 0, D2 ag -12 and PINK1 modulator 0.1%.
Screening Fc1ccc(-n2c(CN3CCCCC3)n[nH]c2=S)cc1 returned TRPML1 ag 1.8, CtBP-E1A inh 0, TRPML1 blocker -11, Six1-Eya2 blk 22, D2 ag 2.3 and PINK1 modulator 1.6%.
Screening O=C(CC1(O)C(=O)N(Cc2ccccc2)c2ccccc21)c1ccc2c(c1)OCO2 (configuration not stated) returned TRPML1 ag 0.3, CtBP-E1A inh -3, TRPML1 blocker -1, Six1-Eya2 blk -1, D2 ag 0.9 and PINK1 modulator -1.4%.
Screening COc1cccc(/C=C2\SC(=S)N(CCCC(=O)NC3=NCCS3)C2=O)c1 returned TRPML1 ag 0.6, CtBP-E1A inh inconclusive, TRPML1 blocker -3, Six1-Eya2 blk -22, D2 ag -1.4 and PINK1 modulator 18%.
O=S(=O)(NCc1ccc(F)cc1)c1ccc(Br)cc1Br was read as TRPML1 ag 1.2&0.6, CtBP-E1A inh 8, TRPML1 blocker 13, Six1-Eya2 blk 9, D2 ag -1.8 and PINK1 modulator 3.2%.
`Cc1cc2ncn(C(=O)N3CCCCC3)c2cc1C` gave TRPML1 ag 2.4, CtBP-E1A inh 7, TRPML1 blocker 24, Six1-Eya2 blk -1, D2 ag -2.2 and PINK1 modulator -0.7%[38.3 µM].
`CCOc1ccccc1N(C(=O)CNC(=O)c1ccco1)C(C(=O)NC1CCCC1)c1cccnc1` (configuration not stated) gave TRPML1 ag -0.1, CtBP-E1A inh 6, TRPML1 blocker -1, Six1-Eya2 blk 0, D2 ag 3.0 and PINK1 modulator -1.4%.
Screening CCCCNC(=O)NNC(=O)COc1cc(C)cc(C)c1 returned TRPML1 ag -0.7, CtBP-E1A inh 6, TRPML1 blocker 15, Six1-Eya2 blk 0, D2 ag 2.7 and PINK1 modulator 0.4%.
`O=C(Nc1ccc(S(=O)(=O)Nc2ccccc2)cc1)C1COc2ccccc2O1` (configuration not stated) gave TRPML1 ag 0.1, CtBP-E1A inh 12, TRPML1 blocker 27, Six1-Eya2 blk -2, D2 ag 1.7 and PINK1 modulator 15%[38.3 µM].
Screening COc1ccc(C2=Nc3ccc(OC(F)(F)F)cc3NC(c3cccnc3)=N2)cc1 returned TRPML1 ag 3.4, TRPML1 blocker 44 and PINK1 modulator 4.9%.
For Fc1ccccc1N1CCN(C2CCCN(Cc3cccc(C(F)(F)F)c3)C2)CC1 (configuration not stated) the results were TRPML1 ag 0.4, CtBP-E1A inh -12, TRPML1 blocker -4, Six1-Eya2 blk -14, D2 ag 14 and PINK1 modulator inconclusive.
